# From PubChem BioAssay
# Mtb MbtI inh = MbtI salicylate synthase inhibitors, primary screen, biochemical, fluorescence intensity; P9WFX0; purified MbtI enzyme, fluorescence intensity read-out; inhibition, %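 (about 17 µg/mL by stock and volumes)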; 0.89% of 100,000 active; AID 493033, 2011;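 active means above 50% in both replicates, above 80% if mildly self-fluorescent; inactive means the rest, strongly fluorescent compounds included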;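 further: 0% = mean of negative and 100% = mean of positive controls; one replicate is shown; some compounds called inactive have numbers as strong as hits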
# Target sequence (P9WFX0 whole entry, looked up): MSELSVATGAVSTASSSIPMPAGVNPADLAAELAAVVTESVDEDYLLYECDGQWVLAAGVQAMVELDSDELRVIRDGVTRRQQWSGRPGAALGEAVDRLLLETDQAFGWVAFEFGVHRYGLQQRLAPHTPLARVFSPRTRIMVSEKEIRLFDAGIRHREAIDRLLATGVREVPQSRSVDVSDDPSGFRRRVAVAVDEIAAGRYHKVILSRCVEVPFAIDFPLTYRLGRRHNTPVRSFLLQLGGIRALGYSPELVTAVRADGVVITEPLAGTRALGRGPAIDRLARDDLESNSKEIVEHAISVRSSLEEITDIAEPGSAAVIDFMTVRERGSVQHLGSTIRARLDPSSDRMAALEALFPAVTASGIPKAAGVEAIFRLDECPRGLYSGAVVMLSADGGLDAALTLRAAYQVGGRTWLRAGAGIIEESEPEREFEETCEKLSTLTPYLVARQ
# MenB inh = M. tuberculosis MenB inhibitors, primary screen, biochemical, absorbance. 1,4-dihydroxy-2-naphthoyl-CoA synthase (Mycobacterium tuberculosis (strain ATCC 25618 / …. MenB enzyme assay, absorbance read-out; some hits fall short of the stated cut. inhibition, %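 (about 12 µg/mL by stock and volumes)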. 0.43% of 100,000 active;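 active means mean of two replicates above 30%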;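 further: 0% = no compound and 100% = wells with inactive enzyme; the first replicate is given; strong numbers were not always called active; inactives centre near -10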
# Polio RdRp inh = poliovirus RdRp elongation inhibitors, primary screen, biochemical, fluorescence polarization, total intensity; 0.66% of 150,000 active; % elongation, % (compound at 16.7 µg/mL); Genome polyprotein (Poliovirus type 1 (strain Mahoney)), P03300; poliovirus polymerase elongation; hits give low values; AID 588519, 2011; in the data active means % elongation below about 90%; further: some results filed as inactive read as strong as hits
# Target sequence (P03300 1749-2209 limits assumed): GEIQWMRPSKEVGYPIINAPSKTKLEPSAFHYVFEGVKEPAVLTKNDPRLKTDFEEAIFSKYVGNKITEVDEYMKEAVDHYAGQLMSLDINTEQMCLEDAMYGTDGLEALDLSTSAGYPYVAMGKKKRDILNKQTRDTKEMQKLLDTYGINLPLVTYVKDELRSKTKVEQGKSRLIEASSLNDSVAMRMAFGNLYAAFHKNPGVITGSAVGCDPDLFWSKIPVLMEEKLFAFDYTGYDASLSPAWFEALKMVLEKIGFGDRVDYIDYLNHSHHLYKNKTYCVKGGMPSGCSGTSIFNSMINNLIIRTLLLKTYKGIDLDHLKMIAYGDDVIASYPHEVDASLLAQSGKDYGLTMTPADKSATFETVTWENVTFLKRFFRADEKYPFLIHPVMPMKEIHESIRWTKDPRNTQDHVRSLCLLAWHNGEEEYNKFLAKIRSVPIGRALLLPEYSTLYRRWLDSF
# Polio RdRp inh intensity = further read-out of Polio RdRp inh, marked with its call; % elongation; measured here: total intensity read-out; formula for this scale not given here;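 total fluorescence in place of polarization; lower means less elongation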
# * hit, by the source's call; · = no result given; & = joins results of further samples.
SMILES,Mtb MbtI inh,MenB inh,Polio RdRp inh,Polio RdRp inh intensity
O=C(CSc1nc2ccccc2c(=O)n1CCO)Nc1ccccc1C(=O)Nc1ccccc1,-6,-6,104,116
CC1(C)CC(=O)C2=C(C1)NC1=C(C(=O)CC(C)(C)C1)C2c1ccccc1C(F)(F)F,·,-16,104,101
O=C(/C=C/c1ccccc1)c1ccc(O[C@@H]2O[C@H](CO)[C@@H](O)[C@H](O)[C@H]2O)cc1O,-29,-8,103,99
CN(C)c1ccc(C2OC(=O)C(C)(C)C(=O)C2(C)C)cc1 (configuration not stated),·,0,106,108
Cc1ccc2n1CCN(c1nc(-c3ccc(Cl)cc3)cs1)C2C (configuration not stated),1,-12,99,102
CCn1cc2c(n1)-c1c(oc(C(=O)Nc3ccc(Cl)cc3)c1C)CC2,10,10,88*,90*
CC1CCCN(C(=O)Cn2c3ccccc3c3nc4n(c(=O)c32)CCS4)C1 (configuration not stated),37,-21,100,101
CN1C(=O)/C(=C/c2ccc(C(=O)NCC(=O)O)cc2)SC1=S,10,-33,·,·
Cc1cc(C(=O)COC(=O)C23CC4CC(CC(O)(C4)C2)C3)c(C)n1C1CC1,-1,-21,104,102
CCC(C(=O)NC1CCC(C)CC1)n1sc2ccccc2c1=O (configuration not stated),1,-8,103,100
Nc1c(S(=O)(=O)c2ccccc2)c2nc3ccccc3nc2n1CCNC(=O)c1cccs1,101,-17,101,107
Cc1ccc(C(C)n2cc(C(=O)NCc3ccccn3)nn2)cc1 (configuration not stated),·,-11,107,107
Cc1ccc(S(=O)(=O)c2c[nH]c(=O)[nH]2)cc1,·,-20,103,98
O=C(OCC(=O)N1CCOCC1)c1ccc2ccccc2c1,138,4,104,106
CCn1c(-c2ccccc2)csc1=Nc1ccc2[nH]c(=O)[nH]c2c1,0,-47,103,101
CN(C)/C=C/C(=O)c1cc(OCC(F)(F)F)ccc1OCC(F)(F)F,5,-4,104,95
O=C1C(Cc2c[nH]c3ccccc23)NC(=S)N1c1ccccc1Cl (configuration not stated),-10,-25,114,130
COc1ccc(N2Cc3cccc(C(=O)NCCC4=CCCCC4)c3C2=O)cc1,108,-15,105,102
CCOc1ccc2c(-c3ccccc3)cc(=O)oc2c1,·,-17,108,112
O=C1c2c(O)cccc2Cc2cccc(O)c21,-15,6,102,104
O/N=C1\CCCCC1C1=CCCCC1 (configuration not stated),-16,-15,105,100
Nc1nnc(C23CC4CC(CC(C4)C2)C3)s1,-3,-4,100,103
COc1ccc(O)c(C(=O)c2cnn(-c3nnc(C)c(=O)[nH]3)c2)c1,-15,-5,108,111
Cc1ccc2oc(=O)cc(CN(C)CCO)c2c1,7,-26,107,105
N#C/C(=C\Nc1ccc2c(c1)OCCO2)c1nc2ccccc2[nH]1,-1,-77,103,109
CC1=CC(=C(C#N)c2nc3ccccc3s2)C=C(C)N1CC1CCCO1 (configuration not stated),-12,-52,106,102
CC(C)OCCCn1c(=O)c2ccccc2n2c(CCC(=O)Nc3ccccc3)nnc12,1,-17,104,103
S=C(c1ccccc1)N1CCOCC1,·,4,100,100
CCOc1ccc(N)cc1OCC,-11,·,100,103
O=C(COC(=O)CN1C(=O)c2ccccc2C1=O)Nc1ccccc1,6,-32,103,97
COc1ccc(NCc2nnc(SCC(N)=O)n2-c2ccc(C)cc2)cc1,-4,3,103,101
C=CCN1/C(=C\CO)[C@@H]2C[C@@H]3[C@H]1CC[C@@]31c3ccccc3N3/C=C4\C5N(/C=C/2C31)c1ccccc1[C@@]51CC[C@@H]2[C@H]1C[C@H]4/C(=C/CO)N2CC=C (some centres not stated),0,-7,101,101
CCOC(=O)c1c(NC(=O)c2cc3ccccc3c(=O)o2)sc2c1CCCCCC2,10,-7,102,104
CC(C)CCn1c(=O)c2ccccc2n2c(CCC(=O)NCc3cccnc3)nnc12,0,-10,102,104
CN1C(=O)CC(Nc2ccc(N(C)C)cc2)C1=O (configuration not stated),-2,13,·,·
Cc1ccc2c(c1)N(C(=O)N1CCCC(C(=O)NCc3ccc(Cl)cc3)C1)CC(C)O2 (configuration not stated),-11,2,102,102

# A second format for some results above:
# Below each SMILES – Mtb MbtI inh	MenB inh	Polio RdRp inh	Polio RdRp inh intensity
> O=C(OCC(=O)N1CCOCC1)c1ccc2ccccc2c1
  138	4	104	106
> CCn1c(-c2ccccc2)csc1=Nc1ccc2[nH]c(=O)[nH]c2c1
  0	-47	103	101
> CN(C)/C=C/C(=O)c1cc(OCC(F)(F)F)ccc1OCC(F)(F)F
  5	-4	104	95
> O=C1C(Cc2c[nH]c3ccccc23)NC(=S)N1c1ccccc1Cl (configuration not stated)
  -10	-25	114	130
> COc1ccc(N2Cc3cccc(C(=O)NCCC4=CCCCC4)c3C2=O)cc1
  108	-15	105	102
> CCOc1ccc2c(-c3ccccc3)cc(=O)oc2c1
  ·	-17	108	112
> O=C1c2c(O)cccc2Cc2cccc(O)c21
  -15	6	102	104
> O/N=C1\CCCCC1C1=CCCCC1 (configuration not stated)
  -16	-15	105	100
> Nc1nnc(C23CC4CC(CC(C4)C2)C3)s1
  -3	-4	100	103
> COc1ccc(O)c(C(=O)c2cnn(-c3nnc(C)c(=O)[nH]3)c2)c1
  -15	-5	108	111
> Cc1ccc2oc(=O)cc(CN(C)CCO)c2c1
  7	-26	107	105
> N#C/C(=C\Nc1ccc2c(c1)OCCO2)c1nc2ccccc2[nH]1
  -1	-77	103	109
> CC1=CC(=C(C#N)c2nc3ccccc3s2)C=C(C)N1CC1CCCO1 (configuration not stated)
  -12	-52	106	102
> CC(C)OCCCn1c(=O)c2ccccc2n2c(CCC(=O)Nc3ccccc3)nnc12
  1	-17	104	103
> S=C(c1ccccc1)N1CCOCC1
  ·	4	100	100
> CCOc1ccc(N)cc1OCC
  -11	·	100	103
> O=C(COC(=O)CN1C(=O)c2ccccc2C1=O)Nc1ccccc1
  6	-32	103	97
> COc1ccc(NCc2nnc(SCC(N)=O)n2-c2ccc(C)cc2)cc1
  -4	3	103	101
> C=CCN1/C(=C\CO)[C@@H]2C[C@@H]3[C@H]1CC[C@@]31c3ccccc3N3/C=C4\C5N(/C=C/2C31)c1ccccc1[C@@]51CC[C@@H]2[C@H]1C[C@H]4/C(=C/CO)N2CC=C (some centres not stated)
  0	-7	101	101
> CCOC(=O)c1c(NC(=O)c2cc3ccccc3c(=O)o2)sc2c1CCCCCC2
  10	-7	102	104
> CC(C)CCn1c(=O)c2ccccc2n2c(CCC(=O)NCc3cccnc3)nnc12
  0	-10	102	104

# The list goes on.
SMILES,Mtb MbtI inh,MenB inh,Polio RdRp inh,Polio RdRp inh intensity
CCCC(CCC)C(=O)Nc1ccc(NC(=O)c2ccco2)cc1,24,34*,103,100
S=c1[nH]nc(-c2cccnc2)n1C1CCCCC1,12,-40,104,106
CCc1ccc(C(=O)CSc2cccc[n+]2[O-])cc1,46,·,104,96
Nc1ccc2nc(SCC(=O)c3ccc(F)cc3)sc2c1,·,-7,107,108
O=C(Oc1ccc2c(=O)c(-c3ccccc3)coc2c1)N1CCOCC1,-6,3,103,105
N#CC(C#N)=C(C#N)c1ccc(N(c2ccccc2)c2ccccc2)cc1,-308,·,101,100
CC(c1ccc(-n2cncn2)cc1)N(C)c1ncnc2sc3c(c12)CCCC3 (configuration not stated),1,-20,104,105
COC(=O)Cn1c(C)nc2ccccc21,-11,5,102,102
CCCCNC(=O)CC1N=C2c3ccccc3N=C(SCC(=O)N3CCN(c4ccccc4)CC3)N2C1=O (configuration not stated),-4,-19,105,102
O=C(NC1CCCC1)c1cccc(S(=O)(=O)N2CCCC2)c1,-14,·,100,105
CC(=O)Nc1ccccc1OC(=O)c1sc2ccccc2c1Cl,-2,·,100,103
CCc1ccccc1NC(=O)N1CCCC1C(=O)O (configuration not stated),-6,10,98,102
CN1C(=O)/C(=C2\SC(N3CCCCCC3)=NC2=O)c2ccccc21,-15,-46,103,103
Cc1nc(-c2ccc(-n3nncc3-c3cccs3)cc2)cs1,-21,-34,103,108
CC(NCc1cccs1)C(=O)Nc1ccc(S(=O)(=O)N2CCCC2)cc1 (configuration not stated),-9,-16,104,105
O=C(NCc1ccco1)C1CCN(c2nc3ccccc3n2Cc2cccc(F)c2)CC1,2,-28,103,107
COc1ccc(CCNC(=O)c2ccc3noc(-c4ccccc4)c3c2)cc1OC,-5,-28,105,104
NC(=O)COC(=O)c1ccc(O)cc1,24,6,101,104
CC(=O)N1CCOc2cc(S(=O)(=O)N(C)Cc3ccccc3)ccc21,-10,5,103,106
COc1cccc(-n2c(C)nc3c(cnn3-c3ccc(Cl)cc3)c2=O)c1,1,-15,105,108
COc1cccc(NC(=O)CNCC(O)c2ccccc2)c1 (configuration not stated),-6,-18,99,102
Cc1c(S(=O)(=O)C(C)C)c(N)n(Cc2ccc(Cl)cc2Cl)c1C,22,13,105,111
CC(C(=O)Nc1cccc(C#N)c1)N(C)CC(=O)Nc1ccc(Cl)cc1 (configuration not stated),4,6,·,·
O=C(Cc1ccc2c(c1)OCCO2)NCc1ccco1,28,7,·,·
CCc1ccc(C2C(C#N)=C(N)OC3=C2C(=O)CCC3)cc1 (configuration not stated),·,-9,100,99
CC1CCCC(C)N1C(=O)CSc1ccc(-c2ccc3c(c2)OCCO3)nn1 (configuration not stated),8,-73,104,104
CC1Cc2ccccc2N1C(=O)COc1ccc(C(=O)c2ccc(F)cc2)cc1 (configuration not stated),-4,·,100,98
COC(=O)c1c(C)nn(CCC#N)c1N,-2,-1,100,103
CCNc1nc(C)nc2sc(CC)cc12,·,32*,103,99
CCOc1ccccc1C(=O)N1CC(C)N(C(=O)c2ccccc2OCC)CC1C (configuration not stated),-54,-9,99,102
c1ccc(Cn2ncc3c2ncn2nc(-c4ccncc4)nc32)cc1,·,-23,102,106
Cc1nonc1NC(=O)CNC1CCCCC1,-2,-4,101,103
CCCC12CN3CC(CCC)(CN(C1)C3C)C2=O (configuration not stated),-4,23,101,102
C#CCNCc1ccccc1,-4,-26,105,107
CC(=O)Nc1cccnc1,1,·,101,97
FC(F)(F)CN(Cn1nc(-c2ccco2)oc1=S)Cn1nc(-c2ccco2)oc1=S,80,-8,76*,74*
Cc1ccc(-n2c(C)cc(C(=O)CSc3nnc4ccccn34)c2C)cc1,·,-26,94,85
Cc1ccc(SCCC(=O)N2CCCC2)cc1,3,4,99,100
CC1=NN(c2ccccc2)C(=O)/C1=C\c1c(O)n(-c2ccc(F)cc2)[nH]c1=O,10,-49,104,100
N#CCSc1nc2ccc(Cl)cc2[nH]1,53*,3,102,106
O=C(CCCN1C(=O)c2ccccc2C1=O)NCc1ccccc1,-2,-14,101,108
O=C(Cc1csc(N2CCOCC2)n1)N/N=C/c1ccc(F)cc1,0,-18,99,92
CC(C)CNS(=O)(=O)C1CCS(=O)(=O)C1 (configuration not stated),-12,-19,102,108
Cc1cc(Cl)c2ccccc2[n+]1[O-],6,7,99,104
Cc1cc(NC(=O)c2cccc(-n3cnnc3)c2)no1,-15,0,101,102
O=C(O)CCc1nnc2ccc(N3CCC4(CC3)OCCO4)nn12,-2,9,99,103
Cc1cc(C)c2oc(-c3cc(N)ccc3Cl)nc2c1,18,-9,110,125
CN(Cc1ccccc1F)C(=O)CCCn1c(=O)oc2ccccc21,-10,-13,105,106
COc1cccc(NC(=O)CSc2nc(N)cc(=O)[nH]2)c1,-1,-6,104,108
COc1cccc(NC(=O)COC(=O)C2CCCCC2)c1,1,·,101,95
N#Cc1cccc(C(=O)Cc2cccc(Oc3ccccc3)c2)c1,8,-12,106,109
FC(F)(F)Oc1ccc(OCc2n[nH]c(=S)o2)cc1,17,-12,104,96
CN(C)c1nc(NCCO)c2cnn(C)c2n1,17,-11,106,104
COC(=O)c1sc(-n2cccc2)c(C(=O)OC)c1C,74,-26,103,101
Cc1c(NC(=O)c2ccc(C(=O)O)cc2C(=O)O)c(=O)n(-c2ccccc2)n1C,-4,-1,103,102
NC(=O)CSc1nnc(SCCOc2ccccc2)s1,-3,-8,100,103
Cc1ccc(Oc2nc3ccccc3n3c(C)nnc23)cc1C,2,-8,104,103
CC1CCC(=NO)CC1 (configuration not stated),-6,-9,100,98
CC(=O)Nc1ccc(S(=O)(=O)N(C)CC(=O)OCc2cn3cc(Cl)ccc3n2)cc1,4,-23,105,114
COc1cc(NC(=O)C(C)(C)C)ccc1Br,-2,12,102,111

# Remaining list, next part.
SMILES,Mtb MbtI inh,MenB inh,Polio RdRp inh,Polio RdRp inh intensity
CCOc1ccc(-c2cc(CCCC(=O)NCCc3ccccc3)no2)cc1,-1,-13,102,106
O=c1cc(-c2ccccc2)nc(-c2ccc(Br)cc2)[nH]1,5&9,7,99,103
CCn1nnc2sc(-c3ccccc3)cc2c1=O,68,4,102,103
COC(=O)c1ccc(Oc2ccc(Cl)cc2Cl)o1,-3,-16,102,106
Oc1c(N=Nc2ccccc2)cc2c3c1CCCN3CCC2,19,-25,98,91
CC(=O)Nc1ccccc1OCc1nnc(-c2ccccc2)o1,-11,-12,102,100
